Cruzain Triton: inhibitors of Trypanosoma cruzi cruzain with detergent. P25779. purified cruzain, Z-FR-AMC fluorescence, 0.01% Triton. Potency, µM, inactives show max response, negative = inhibition, hits mostly inhibitors. 200,000 compounds, 0.43% hits. AID 1478; active means well fitted curve in the direction sought with a large enough effect; inconclusive means small, poorly fitted or top-dose-only effect, or another doubt; inactive means no such curve, though single readings can be large; an effect the other way counts as inactive or inconclusive;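 further: plate controls were neutral wells for no effect and buffer without enzyme for full effect; nearly all actives have a fitted effect of over 40% in size; top concentration of the series not given in the record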
Target sequence (P25779 123-467 limits assumed): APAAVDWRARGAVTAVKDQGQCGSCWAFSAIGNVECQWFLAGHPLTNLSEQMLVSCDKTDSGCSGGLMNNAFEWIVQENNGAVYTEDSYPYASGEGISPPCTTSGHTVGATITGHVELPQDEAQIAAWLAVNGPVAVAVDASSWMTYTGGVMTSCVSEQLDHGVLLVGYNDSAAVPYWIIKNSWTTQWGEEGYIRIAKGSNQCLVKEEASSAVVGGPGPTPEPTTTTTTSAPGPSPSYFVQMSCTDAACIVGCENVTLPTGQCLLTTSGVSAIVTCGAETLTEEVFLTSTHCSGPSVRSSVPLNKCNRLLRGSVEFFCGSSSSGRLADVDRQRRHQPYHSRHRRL
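Detergent-containing run (0.01% Triton X-100) in acetate buffer pH 5.5 with 5 mM DTT: enzyme at 1.5 nM final, 15 min compound preincubation at room temperature, then 2 uM Z-FR-AMC substrate. Activity taken as 60 s fluorescence increase at 360/450 nm.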
StopGo reporter: lowers the luciferase signal of an FMDV 2A StopGo reporter. 410,000 compounds, 1.2% hits. AID 1159524. Potency, µM (top dose mostly 57.9 µM), inactives show at the highest dose signal change, negative = less light. human cells with a luciferase reporter of 2A StopGo recoding; control for the full effect not named in the record; active = well fitted falling curve with a large enough effect; inconclusive = small, poorly fitted or top-dose-only effect; inactive = no such curve, though single readings can be large or run the other way; tested in HEK293T cells; further: on the % scale 0 is the no-effect control and ±100 the full control effect; nearly all actives have a fitted effect of over 45% in size; luciferase light after 4 h
SARS PLpro yeast: SARS-CoV PLP inhibition in yeast; S. cerevisiae expressing SARS-CoV PLpro, growth rescue; control for the full effect not named in the record; Potency, µM (series often up to 32.9 µM), inactives show at the highest dose activity, positive = growth rescue; 330,000 compounds, 0.19% hits; AID 485353; further: 0% is about no effect; nearly all actives have a fitted effect of over 55% in size; growth read by luminescence after 48 h
LASV entry inh: blocks Lassa virus binding to or entry into cells; Lassa virus pseudotype entry inhibition, cell reporter; control for the full effect not named in the record; Potency, µM (top dose mostly 37.9 µM), for the others: at the top dose activity change, negative = inhibition, hits mostly inhibitors; 300,000 compounds, 1.2% hits; AID 540256; active means well fitted inhibition curve with a large enough effect; inconclusive means small, poorly fitted or top-dose-only effect, or effect the other way; inactive means flat fitted curve, though single readings scatter; tested in HEK293 cells; further: on the % scale 0 is the no-effect control and ±100 the full control effect; nearly all actives have a fitted effect of over 50% in size; luciferase read-out
NS1 function inh: inhibitors of influenza NS1 protein function; S. cerevisiae slowed by influenza A NS1, growth recovery by OD600; Potency, µM (series often up to 46.1 µM), without a hit: at the highest dose activity, positive = more growth; 270,000 compounds, 0.4% hits; further: actives are rising curves; nearly all actives have a fitted effect of over 50% in size
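Compounds were scored for reversing the slow growth caused by influenza A NS1 in S. cerevisiae, measured by optical density at 600 nm. Assay medium contained 2% galactose at pH 6.0; NS1-free yeast of the same strain were the positive control.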
Cruzain noTriton: blocks cruzain activity in detergent-free assay; Potency, µM, without a hit: max response, negative = inhibition, hits mostly inhibitors; P25779; AID 1476; 200,000 compounds, 2.3% hits; purified cruzain, Z-FR-AMC fluorescence, no detergent; active means well fitted curve in the direction sought with a large enough effect; inconclusive means small, poorly fitted or top-dose-only effect, or another doubt; inactive means no such curve, though single readings can be large; an effect the other way counts as inactive or inconclusive;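 further: plate controls were enzyme without inhibitor for no effect and buffer without enzyme for full effect; nearly all actives have a fitted effect of over 40% in size; top concentration of the series not given in the record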
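Purified cruzain at 1.5 nM, pre-incubated 15 min with compound at room temperature in 100 mM sodium acetate pH 5.5, 5 mM DTT, 0.00005% Triton X-100. Reaction started with 2 uM Z-FR-AMC; AMC fluorescence increase over 60 s gives rate.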
RE007 growth inh: less growth of the S. pombe RE007 Vpr strain; 360,000 compounds, 0.21% hits; Potency, µM (top dose mostly 92.2 µM), for inactives: at the top dose activity change, negative = less growth; S. pombe RE007 Vpr strain, BacTiter-Glo ATP luminescence, 24 h; control for the full effect not named in the record; active = well fitted falling curve with a large enough effect; inconclusive = small, poorly fitted or top-dose-only effect; inactive = no such curve, though single readings can be large or run the other way;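 further: on the % scale 0 is the no-effect control and ±100 the full control effect; nearly all actives have a fitted effect of over 50% in size; the assay follows cell death caused by Vpr and the record does not say whether a fall means rescue or toxicity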
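Fission yeast RE007 carrying one integrated HIV-1 vpr copy, seeded at OD 0.01 in PMG+AL medium with 23 nL pinned compound. Grown 24 h at 30 degrees; viability read by BacTiter-Glo luminescence after 5 min.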
MARV entry inh: Marburg virus entry inhibition | Marburg virus pseudotyped entry inhibition, cell reporter; control for the full effect not named in the record; about a third of the inactives were read at about 46 µM | Potency, µM (top dose mostly 37.8 µM), for inactives: at the top dose activity change, negative = inhibition, usual class: inhibitors | 300,000 compounds, 1.8% hits; active = well fitted inhibition curve with a large enough effect; inconclusive = small, poorly fitted or top-dose-only effect, or effect the other way; inactive = flat fitted curve, though single readings scatter; tested in HEK293 cells; about a fifth of its hits are not listed in these tables; further: on the % scale 0 is the no-effect control and ±100 the full control effect; luciferase read-out
Active calls of the source: *; ? = inconclusive; nt = no result given; & = joins results of further samples; [ ] = another dose, or the depositor's remark. Unless noted, the call rests on the fitted dose curve; in most records, active means well fitted rising curve with a large enough effect; inconclusive means small, poorly fitted or top-dose-only effect; inactive means no such curve, though single readings can be large or run the other way. Potency means the concentration at half of the fitted maximal effect. Random draw from the library; overall some 4.7% were active at least once.

Second line of a record: Cruzain Triton	StopGo reporter	SARS PLpro yeast	LASV entry inh	NS1 function inh	Cruzain noTriton	RE007 growth inh	MARV entry inh
1. CCN(CC(=O)NCc1ccc(F)cc1)S(=O)(=O)c1ccc(C)cc1
→ nt	14%	-1%	nt	0%	nt	7%	nt
2. O=C1c2ccccc2C(=O)N1CSc1nnc(Nc2ccccc2F)s1
→ 0.9%	10%	20%	13%	13%	2%	9%	13%
3. CCC(C)[C@H](NC(=O)NCc1ccccc1)C(=O)O (stereo not given in full)
→ 0.3%	-3%	-4%	17%	4%	4%	11%	2%
4. Cc1sc2nc[nH]c(=S)c2c1-c1ccccc1
→ nt	-9%	-2%	15%	nt	nt	-3%	3%
5. O=C1NC2(CCCCCC2)C(=O)N1Cc1ccc(Br)cc1
→ nt	-11%	-3%	-5%[46.1 µM]	-8%	nt	-6%	-17%[46.1 µM]
6. O=S(=O)(Nc1ccc(-c2cn3cccnc3n2)cc1)c1ccccc1
→ nt	2%	2%	-38%	3%	nt	4%	-24%[46.1 µM]
7. O[C@H]1C2CCC1C(N1CCCCC1)CC2 (stereo not given in full)
→ 1.2%	-12%	7%	-2%	?	-8%	6%	12%
8. CCOC(=O)Cc1csc(NC(=O)Cc2ccccc2)n1
→ nt	7%	0%	2%[46.1 µM]	-5%	nt	0%	15%[46.1 µM]
9. O=C(NCc1nc(-c2ccc(C(F)(F)F)cc2)no1)Nc1ccc(F)cc1F
→ nt	-11%	1%	15%	-2%	nt	-12%	?
10. Cc1c(C(=O)N2CCCC2)oc2c1-c1nn(CC(=O)NCc3ccccc3Br)cc1CC2
→ -6.1%	-18%	nt	-17%[46.1 µM]	nt	-12%	nt	nt
11. COc1ccc2c(c1)c(=O)oc1c(C)c(OC(C)C(=O)N[C@@H](Cc3c[nH]c4ccc(O)cc34)C(=O)O)ccc12 (stereo not given in full)
→ nt	-20%	-1%	nt	-17%	nt	6%	nt
12. O=C(Nc1cccc(S(=O)(=O)N2CCCCC2)c1)c1ccc(S(=O)(=O)C(F)F)cc1
→ nt	28µM*	0%	?	nt	nt	3%	4.5µM*
13. CC(OC(=O)C1CC=CCC1C(N)=O)C(Cl)=C(Cl)Cl (stereo not given)
→ -2.9%	8%	1%	4%	-5%[9.22 µM]	6%	-6%	-1%
14. CC(C)OC(=O)CSc1nc(N2CCOCC2)c2c(c1C#N)CC(C)(C)OC2
→ nt	-9%	-3%	-14%[46.1 µM]	-4%	nt	9%	?
15. O=c1cc(-c2ccccc2)c2cc(Cl)c3c(c2o1)CN(Cc1ccccc1)CO3
→ -5.9%	-23%	nt	3%[46.1 µM]	nt	-21%	nt	18%[46.1 µM]
16. CN(C(=O)CSc1nc(-c2ccc(C(C)(C)C)cc2)c(C#N)c(=O)[nH]1)C1CCCCC1
→ nt	-30%	?	nt	?	nt	5%	nt
17. CCOC(=O)c1c(C)oc2nc(C)nc(NCc3cccc(Cl)c3)c12
→ -0.7%	-24%	nt	17%[46.1 µM]	nt	-15%	nt	nt
18. Cn1c(NCc2ccco2)nc2c1c(=O)n(Cc1ccc(Cl)c(Cl)c1)c(=O)n2C
→ -4.7%	32µM*	-6%	-23%	8%	3%	2%	-24%[46.1 µM]
19. CC(=O)N1CCc2c(sc3c2c(=O)n(-c2ccccc2)c(=O)n3CC(=O)Nc2ccccc2)C1
→ -0.6%	27%	nt	?	nt	3%	nt	nt
20. O=C(c1ccco1)N1CCN(C(=O)c2cc(Cl)nc3ccccc23)CC1
→ nt	-12%	8%	-9%	nt	nt	-12%	-24%
21. C=CCN1C(=O)CSc2ccc(C(=O)OCC)cc21
→ 0.7%	4%	14%	-4%	-11%	3%	5%	2%
22. CCOc1ccc(NC(=O)CSc2nnc(CC)c(CC)n2)cc1
→ -2.1%	7%	nt	18%[46.1 µM]	nt	-3%	nt	nt
23. CCN(CC)c1ccc2cc(C=O)c(=O)oc2c1
→ -15%	7%	nt	10%	-109%	-20%	-19%	-6%
24. O=C(/C=C/c1cccc([N+](=O)[O-])c1)N1CCN(C(=O)c2ccco2)CC1
→ -2.9%	-18%	16%	23%	4%	5%	2%	8%
25. COCCCNC(=O)CN(c1cc(C(F)(F)F)ccc1Cl)S(C)(=O)=O
→ nt	-10%	0%	nt	9%	nt	2%	nt
26. Nc1ncc(-c2ccc([N+](=O)[O-])cc2)cn1
→ -1.3%	10%	-3%	20%	-3%	1%	4%	?
27. COc1ccc(NC(=O)CS(=O)CC(=O)Nc2cccnc2)cc1 (stereo not given)
→ nt	3%	-3%	nt	-5%	nt	2%	-1%[46.1 µM]
28. Cc1ccc(S(=O)(=O)NN2C(=O)/C(=C/c3cccc(F)c3)SC2=S)cc1
→ nt	-15%	-5%	nt	-76%	nt	-5%	nt
29. O=C(NCCN1CCCC1)c1cc(-c2ccncc2)nc2ccc(S(=O)(=O)N3CCOCC3)cc12
→ -3.6%	-9%	3%	3%	1%	-5%	-9%	-15%&-15%
30. CCOC(=O)c1ccc(N2C(=O)c3n[nH]c(C)c3C2c2ccc(CC)cc2)cc1 (stereo not given)
→ -5.8%	?	nt	20%[46.1 µM]	nt	-1%	nt	?
31. CCCOc1c(Br)cc(C(=O)OCC(=O)NC2CC2)cc1OC
→ nt	18%	-4%	-1%	nt	nt	-7%	5%
32. Cc1ccc(-n2cc(CNC(C)c3cnn(C)c3)c(-c3ccc(F)cc3)n2)cc1 (stereo not given)
→ nt	-19%	-1%	8%	-2%	nt	14%	?
33. COc1ccccc1CNc1nccn(-c2ccc(F)cc2)c1=O
→ -7.1%	10%	nt	?	nt	-20%	nt	nt
34. CC1SC(c2ccc(Cl)cc2Cl)NC1=O (stereo not given)
→ -2.3%	9%	-5%	?	7%	-5%	0%	-17%[46.1 µM]
35. COC(=O)Cc1ccc(NC(=S)NC2CC2)cc1
→ nt	-7%	-2%	21%	1%	nt	-13%	-5%
36. CN(CC(=O)O/N=C(\N)c1ccc([N+](=O)[O-])cc1)S(=O)(=O)c1ccccc1
→ 3.0%	0%	2%	-20%	-1%	-22%	1%	-11%
37. CCOC(=O)CN1N=C(/C=C/c2ccc(C)cc2)CCC1=O
→ -5.8%	23%	6%	-16%	-2%	2%	5%	-27%
38. C=CCSc1nc2sc3c(c2c(=O)n1-c1ccc(C)cc1)CCN(C)C3
→ nt	-12%	0%	nt	0%	nt	-10%	nt
39. CCCCOc1ccc(NS(=O)(=O)c2ccc(-n3cnnn3)cc2)cc1
→ nt	-17%	-1%	nt	19%	nt	-16%	nt
40. Cc1cccc(/C=N/NC(=O)C(C)Nc2cccc3ccccc23)n1 (stereo not given)
→ -8.9%	nt	-11%	-11%	-13%	12%	-12%	-1%
41. Cn1c(=O)c2nnn(/N=C(\c3ccccc3)C3CC3)c2n(C)c1=O
→ 9.9%	-4%	?	-13%	3%	-5%	-21%	-25%
42. Cc1cc(C)cc(NS(=O)(=O)c2ccc3[nH]cc(C(=O)N4CCCCCC4)c(=O)c3c2)c1
→ -4.5%	32%[activator]	nt	16%[46.1 µM]	nt	-3%	nt	7%[46.1 µM]
43. Cc1ccc2oc(C(=O)N(Cc3ccc(N(C)C)cc3)CC3CCCO3)c(C)c2c1 (stereo not given)
→ -6.6%	3%&7%	28%	-26%[46.1 µM]	-20%	9%	13%	-27%&-27%[46.1 µM]
44. CCc1ccc(N2C(=O)/C(=C/c3cccs3)N(CC(=O)OC)C2=S)cc1
→ -5.6%	4%	-4%	-33%[14.3 µM]	8%	6%	13%	-10%
45. CCOC(=O)c1cc(-c2ccccc2)n(-c2cccc(C(=O)Nc3ccc(OCC)cc3)c2)c1C
→ -1.0%	-11%	nt	3%[46.1 µM]	nt	-14%	nt	nt
46. O=C(O)c1cccc(NS(=O)(=O)/C=C/c2ccccc2)c1
→ -3.7%	-6%	-3%	16%	-4%	-2%	-1%	-14%
47. CCOC(=O)Cc1csc(NC(=O)c2ccc(Cl)nc2)n1
→ 2.8%	?	0%	-26%	-21%	-3%	-10%	?
48. Cc1noc(/C=C/c2ccc(-c3ccccc3Cl)o2)c1[N+](=O)[O-]
→ 0.3%	0%	5%	10%	5%	?	8%	20%
49. Clc1ccccc1OCCCCN1CCNCC1
→ nt	-16%	0%	16%	9%	nt	19%	-7%
50. CC(C)[C@H](NS(=O)(=O)c1ccccc1)C(=O)OCC(=O)NCc1ccc2c(c1)OCO2
→ nt	5%	-1%	-2%[46.1 µM]	nt	nt	1%	?
51. CSc1ccccc1NC(=O)COc1ccc(Cl)cc1
→ -11%	-4%	-18%	?	-22%	-5%	22%	24%
52. Cc1ccc(NS(=O)(=O)c2ccc3[nH]c(=O)oc3c2)cc1Cl
→ nt	51%[activator]	2%	4%	nt	nt	-9%	?
53. CCCCC(=O)Nc1sc2c(c1C(=O)OCC)CCC(C=O)=C2Cl
→ -2.8%	nt	-5%	nt	6%	5%	nt	-2%
54. Cc1c(C(=O)NCc2ccco2)oc2ccc(Br)cc12
→ nt	17%	-3%	-8%	nt	nt	-22%	?
55. CCOC(=O)C1CCN(C(=O)c2oc3ccc4c(c3c2C)C(O)CC2(CCCCC2)O4)CC1 (stereo not given)
→ nt	-25%	2%	nt	-4%	nt	9%	nt
56. C=CCc1c(OC(C)=O)c2ccccc2n(C)c1=O
→ -4.0%	-9%	11%	-3%	-11%	-6%	0%	-1%
57. CCNC(=S)N1CCN(CCN=CC2=C(O)CC(c3cccs3)CC2=O)CC1 (stereo not given)
→ 1.3%	nt	1%	6%	0%	-2%	-6%	15%
58. COc1ccc(NC(=O)CSc2nc3c(sc4ccccc43)c(=O)n2CCCN2CCCC2)cc1
→ nt	-4%	0%	nt	10%	nt	1%	nt
59. Cc1sc(NC(=O)c2ccco2)c(CN2CCN(Cc3ccccc3)CC2)c1C
→ nt	-29%	-2%	?	nt	nt	-5%	13µM*
60. CCOc1ncccc1C(=O)N(CC)CC(=O)NCc1ccc(F)cc1
→ nt	6%	2%	1%[46.1 µM]	25%	nt	-12%	-7%[46.1 µM]

High-throughput results from PubChem.
